# HIV Env fusion = inhibitors of HIV-1 Env-driven cell-cell fusion, primary screen, HeLa-JRFL effector, CEM21 target cells, luciferase; inhibition, % at 12.3 µM; 360,000 compounds, 1.1% hits; AID 651610, 2012;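 active = mean replicate inhibition score of at least 50 and every replicate individually at or above 50; inconclusive = only one of the two criteria met; inactive = mean below 50 and not all replicates reaching 50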;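 also: 0% = plate neutral controls and 100% = maraviroc near 300 nM; one replicate is shown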
# Rce1 inh = yeast Rce1p protease inhibitors, primary screen, biochemical, fluorescence, cell-free homogeneous; yeast membranes, quenched prenylated peptide cleavage fluorescence; calls only; 290,000 compounds, 0.27% hits; AID 2563, 2010;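 active = fall in fluorescence gain of 50% or more versus controls, with final raw signal at or below 3038400; inconclusive = same 50% fall but final raw signal above 3038400; inactive = fall in fluorescence gain under 50%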;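 also: plate controls were neutral control wells for no effect and wells lacking membranes for full effect; tested at 10 µM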
# CSC inhib = cancer stem cell viability inhibitors, primary screen, luminescence; cancer stem cell-like cells viability; inhibition, % at 7.5 µM; 300,000 compounds, 1.1% hits; AID 2717, 2010;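 active = mean at 75% or more and at least half the replicates too; inconclusive = mean and replicates disagree; tested in HMLE shEcad cells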;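 also: 0% = median of negative and 100% = median of positive control wells; the first replicate is given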
# PABP polyA inh = PABP poly(A) RNA binding inhibitors, primary screen, biochemical, fluorescence polarization, uHTS. inhibition, % at 35 µM. Polyadenylate-binding protein 1 (Homo sapiens), P11940. 290,000 compounds, 1% hits;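 active = 50% or more with normal probe brightness, or confirmed in later tests; inconclusive = above 50% with abnormal brightness, or retests that disagree; inactive = below 50% or failed in later tests; about a fifth of its hits are not listed in these tables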;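 also: calls also rest on retests at 20 µM and on dose response follow-up; controls were probe without protein and protein plus probe with vehicle; some compounds called inactive have numbers as strong as hits; many hits fall short of the cut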
# Target sequence (P11940 whole entry, looked up): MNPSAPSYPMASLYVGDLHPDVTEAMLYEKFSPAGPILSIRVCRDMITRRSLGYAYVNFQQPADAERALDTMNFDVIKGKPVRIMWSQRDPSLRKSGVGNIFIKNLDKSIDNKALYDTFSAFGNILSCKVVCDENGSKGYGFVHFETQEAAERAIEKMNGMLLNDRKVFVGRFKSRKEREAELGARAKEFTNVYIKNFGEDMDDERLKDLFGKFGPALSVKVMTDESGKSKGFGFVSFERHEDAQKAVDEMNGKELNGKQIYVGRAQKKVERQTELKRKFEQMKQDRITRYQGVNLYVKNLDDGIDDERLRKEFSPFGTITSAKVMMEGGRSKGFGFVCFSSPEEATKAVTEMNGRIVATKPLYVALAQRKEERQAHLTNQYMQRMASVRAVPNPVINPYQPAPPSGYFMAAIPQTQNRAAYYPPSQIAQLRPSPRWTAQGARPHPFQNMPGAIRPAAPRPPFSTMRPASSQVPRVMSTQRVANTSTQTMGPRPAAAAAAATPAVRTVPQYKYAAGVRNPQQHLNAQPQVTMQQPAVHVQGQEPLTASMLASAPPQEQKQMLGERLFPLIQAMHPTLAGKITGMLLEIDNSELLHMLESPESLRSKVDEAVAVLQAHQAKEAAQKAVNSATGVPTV
# MT1-MMP act inh = blockers of MT1-MMP proenzyme processing, primary screen, HT1080 RFP-PRO-GFP cells, GFP/RFP fluorescence. GFP/RFP ratio change, % at 20 µM. GFP/RFP ratio fluorescence, overnight; percent of plate control window, DMSO zero. 360,000 compounds, 0.061% hits. Matrix metalloproteinase-14 (Homo sapiens), P50281. AID 651647, 2012;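 active = GFP/RFP ratio change of at least 30% with cell ATP level not reduced by more than half and red fluorescence within 50% of control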; also: strong numbers were not always called active
#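 Assay system – RFP-PRO-GFP reporter HT1080 cells · Compound dosing – single dose of 20 µM compound, 1% DMSO final · Incubation – overnight compound exposure at 37 °C · Measure – GFP/RFP fluorescence ratio · Benchmarks – DMSO wells and RFP-L50D-GFP cells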
# eIF4H FP inh = human eIF4H binding inhibitors, primary screen, translation initiation inhibitor project, biochemical, uHTS, fluorescence polarization; Eukaryotic translation initiation factor 4H (Homo sapiens), Q15056; eIF4H fluorescence polarization binding assay; inhibition, % at 35 µM; 290,000 compounds, 0.94% hits;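 active = 50% or more with normal probe brightness, or confirmed in later tests; inconclusive = above 50% with abnormal brightness, or retests that disagree; inactive = below 50% or failed in later tests; about a fifth of its hits are not listed in these tables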;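 also: calls also rest on retests at 20 µM and on dose response follow-up; 0% = protein and probe with vehicle and 100% = probe without protein; strong numbers were not always called active; many hits fall short of the cut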
# Yeast UUG start = modulators of yeast start codon fidelity, primary screen, whole organism, S. cerevisiae, single point, plate reader. 350,000 compounds, 0.13% hits. AID 602363, 2012. activity score, % at 18.7 µM. S. cerevisiae UUG-firefly luciferase reporter, luminescence/redox ratio;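 active = replicate mean at a twofold rise or more, about +100% in these data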;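 also: firefly luciferase made from a UUG start codon reports start codon fidelity; reporter light over untreated wells divided by growth signal over untreated wells; some hits fall short of that in this replicate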
# eIF4H FP inh retest = second read-out of eIF4H FP inh, no call of its own (marks repeat the call); inhibition, %; compound at 20 µM; confirmation average;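 mean of two retest wells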
# PABP polyA inh retest = recorded beside PABP polyA inh, whose call it bears; inhibition, %; compound at 20 µM; confirmation repeats;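 mean of two retest wells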
# MT1-MMP act inh RFP = also measured in MT1-MMP act inh; calls as there; RFP signal change, %; measured here: RFP expression control read;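 0 = vehicle wells; hits needed this value within 50% of zero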
# Starred values were filed as active, the others as inactive; i = inactive; ? = inconclusive; . = not tested or not shown.
SMILES,HIV Env fusion,Rce1 inh,CSC inhib,PABP polyA inh,MT1-MMP act inh,MT1-MMP act inh RFP,eIF4H FP inh,Yeast UUG start,others
CSc1ccccc1NC(=O)Cc1ccc(Br)cc1,13,i,8,-5,0,-3,-3,.,
CCC(C)N1CC23C=CC(O2)C(C(=O)OC)C3C1=O (stereo unspecified),-20,i,-10,-8,-3,0,5,-18,
O=c1[nH]c2cccc(Cl)c2c2ccccc12,22,.,.,.,1,4,.,1,
Cc1ccnc(NC(=S)NC(=O)c2ccco2)c1,-116,i,5,-9,-1,3,5,.,
CCc1ccccc1OCCOc1ccc(C)cc1OC,.,i,4,0,2,-1,-6,-15,
CC(=O)N1c2ccc(S(=O)(=O)NCC3CCC(C(=O)N4CCCC(C)C4)CC3)cc2CC1C (stereo unspecified),8,i,2,0,1,-10,-6,6,
O=C(Nc1ccc(F)cc1)c1cccc(N2C(=O)C3C4CCC(C4)C3C2=O)c1 (stereo unspecified),24,i,-10,-16,3,-5,-3,.,
CCCn1nnc(NC(=S)NC(=O)c2ccc(-c3ccc(Br)cc3)o2)n1,-22,i,21,4,0,3,-5,.,
Cc1ccc(-c2ccc(CCC(=O)O)n2-c2cccc(O)c2)cc1,-187,i,-9,7,-16,-4,4,4,
O=C(NCC1CCCO1)c1ccc(NS(=O)(=O)c2cccs2)cc1 (stereo unspecified),-7,i,.,13,0,3,12,-1,
CC(C)CNC1CS(=O)(=O)CC1O (stereo unspecified),7,i,-3,-5,-1,2,-2,-9,
CCCCn1c(NCCC)nc2c1c(=O)[nH]c(=O)n2C,.,i,.,0,2,4,2,-5,
Cc1cccc(C(=O)O)c1NC(=O)Cc1cccc2ccccc12,-16,i,-10,-8,-3,-1,-1,-2,
Cc1nc(C2COc3ccccc3O2)sc1C(=O)O (stereo unspecified),-12,i,0,6,1,0,-8,.,
CC(C)COc1ccc(C(=O)CCN2CCCCC2)cc1,.,i,35,-4,5,5,5,8,
CCCCNC(=O)c1onc(CSc2ccccc2)c1C(=O)NCCCC,11,i,-5,.,0,0,.,-13,
COc1ccc(NC(=O)CSc2nnc(COc3ccccc3)n2Cc2ccco2)cc1OC,7,i,-18,7,-4,0,-3,.,
CCOc1ccc(CCNC(=O)c2nnn(CC(=O)Nc3c(C)cc(C)cc3C)c2N)cc1OCC,-1,i,-11,-3,0,-1,0,-20,
CCOc1ccccc1CNC(=O)CCNC(=O)Cn1ccc2ccccc2c1=O,-5,i,-9,-5,3,6,1,-3,
COc1ccc(Br)cc1C(=O)Nc1cccc(C)c1,.,i,?,2,1,2,1,.,
O=C(CNC(=O)c1ccccc1C(F)(F)F)N/N=C/c1cccs1,1,i,-7,-1,-2,4,1,-27,
Cn1nnnc1Sc1ncnc2scc(-c3ccccc3C(F)(F)F)c12,2,.,25,.,1,-1,.,-16,
O=C(Nc1ccccc1F)c1ccc(-c2cccc([N+](=O)[O-])c2)o1,-39,i,-4,14,-2,-1,5,-12,
CC(C)Sc1nc2c(c(=O)[nH]1)C(c1cccs1)C1=C(CC(C)(C)CC1=O)N2 (stereo unspecified),-10,i,-7,0,-3,0,-11,4,
COc1ccc(OCCCC(=O)N(C)CC(=O)Nc2c(C)cccc2C)cc1,-1,i,20,.,.,.,.,-3,
# Next records.
SMILES,HIV Env fusion,Rce1 inh,CSC inhib,PABP polyA inh,MT1-MMP act inh,MT1-MMP act inh RFP,eIF4H FP inh,Yeast UUG start,others
COC(=O)c1cc2ccsc2n1Cc1cc(=O)n2ccccc2n1,.,i,-6,10,-9,1,-6,-3,
COC(=O)c1cc(NC(=O)CSc2nnc(CN3CCOCC3)n2C)ccc1Cl,.,i,6,1,5,0,2,20,
CCn1c(-c2ccccc2O)n[nH]c1=S,.,i,-3,-2,6,2,-12,.,
Fc1ccc2nc(Nc3nc4c(s3)CCCC4)sc2c1,-344,i,23,-15,-10,-3,-11,-13,
CCOC(=O)c1ccc(NC(=O)CSc2nc(SC)ns2)cc1,.,.,0,-4,2,-4,-4,-16,
COc1ccc(S(=O)(=O)NC(CC(=O)NCCc2ccc(OC)c(OC)c2)c2ccco2)cc1 (stereo unspecified),.,i,5,-6,0,2,-12,.,
CC1(C)CC(=O)C(C=NCCN2CCN(C(=O)c3ccc(F)cc3)CC2)=C(O)C1,-13,i,5,12,-1,-1,-2,-10,
O=C(NCCNC(=O)c1ccccc1Br)c1ccccc1Br,-20,i,-16,3,-6,-3,-7,0,
COc1ccc(NC(=O)C2CCCN2C(=O)NCc2ccccc2)c(OC)c1 (stereo unspecified),-74,.,-12,-3,7,6,-4,1,
O=C(Nc1ccccc1Cl)c1cc(C2CCCCN2C(=O)OCCF)on1 (stereo unspecified),5,.,.,.,0,-2,.,-2,
CN1C(=O)/C(=C\c2ccc(OC(=O)c3ccco3)cc2)SC1=S,0,i,-8,-4,-56,4,-12,-10,
Cc1ccc(S(=O)(=O)N2CCCCC2)cc1NC(=O)CCCOc1ccccc1,-86,.,.,.,3,-11,.,-14,
CN(CCNC(=O)c1ccc(CS(=O)(=O)c2c(Cl)cccc2Cl)o1)CCc1ccccc1,13,i,-5,5,3,0,-4,.,
CC1(C2CCC3C4CCC5CC6(CCC5(C)C4C(=O)CC32C)OCCO6)OCCO1 (stereo unspecified),3,.,.,.,1,-6,.,-6,
CC(C)CCNC(=O)C1CCC(CNS(=O)(=O)c2cccc3nsnc23)CC1 (stereo unspecified),.,i,-12,0,0,-1,-2,3,
COc1ccc(-c2nnc(SC3CCOC3=O)n2C2CCCCC2)cc1OC (stereo unspecified),12,i,-12,7,-1,3,-4,-6,
COC(=O)c1c(NC(=O)CCN2CCOCC2)sc2c1CCCC2,4,i,4,-9,4,2,-6,-3,
O=C(c1sccc1Cl)N1CCN(Cc2ccc3c(c2)OCO3)CC1,38,i,5,-6,-1,-7,-4,-12,
COc1ccc(S(=O)(=O)N2CCN(C(=O)C3CC3)CC2)cc1,-6,.,-5,12,1,0,0,-17,
CCCn1nc(NC(=O)c2cccs2)c2cc3cccc(C)c3nc21,24,i,34,-3,-1,-3,-1,-7,
COc1ccc(-c2cc(=O)c3cc(OC)ccc3[nH]2)cc1,.,i,2,5,0,2,-2,0,
CCOc1ccc(-n2c(=O)c3c4c(sc3n(CC(=O)NCc3ccco3)c2=O)CCC4)cc1,.,i,2,17,-5,0,7,0,
Cc1cc2nc(-c3ccc(SCC(=O)N4CCc5ccccc54)nc3)[nH]c2cc1C,.,i,52,-24,3,-2,7,-11,
O=C(Cc1cccc2ccccc12)OCn1nnc2ccccc2c1=O,16,i,-7,2,5,7,-4,-27,
O=C(/C=C/c1ccc(Cl)c([N+](=O)[O-])c1)Nc1cccc(NC(=O)c2ccco2)c1,19,i,?,-4,0,-2,-1,.,

# Next part, starting with the last 5 of the part before.
SMILES,HIV Env fusion,Rce1 inh,CSC inhib,PABP polyA inh,MT1-MMP act inh,MT1-MMP act inh RFP,eIF4H FP inh,Yeast UUG start,others
COc1ccc(-c2cc(=O)c3cc(OC)ccc3[nH]2)cc1,.,i,2,5,0,2,-2,0,
CCOc1ccc(-n2c(=O)c3c4c(sc3n(CC(=O)NCc3ccco3)c2=O)CCC4)cc1,.,i,2,17,-5,0,7,0,
Cc1cc2nc(-c3ccc(SCC(=O)N4CCc5ccccc54)nc3)[nH]c2cc1C,.,i,52,-24,3,-2,7,-11,
O=C(Cc1cccc2ccccc12)OCn1nnc2ccccc2c1=O,16,i,-7,2,5,7,-4,-27,
O=C(/C=C/c1ccc(Cl)c([N+](=O)[O-])c1)Nc1cccc(NC(=O)c2ccco2)c1,19,i,?,-4,0,-2,-1,.,
Cc1cc(C)n(-c2nc(NCCN(C)C)c3c4c(sc3n2)CCCC4)n1,-35,i,53,9,-1,-8,4,.,
CC(C)[C@H](Nc1nc(-c2ccccc2)nc2c1oc1ccccc12)C(=O)O,.,i,5,14,6,5,-7,-2,
O=C(NCCC(=O)N1CCN(S(=O)(=O)c2ccccc2F)CC1)Nc1ccccc1,3,.,.,.,0,2,.,-9,
CCc1ccc(S(=O)(=O)NCc2csc(-c3cccnc3)n2)s1,-36,i,-2,-2,0,-1,2,-11,
O=C(CN1C(=O)C(=O)N(C2CCCC2)C1=O)NCCc1ccc(Cl)cc1Cl,.,.,-11,.,0,3,.,-33,
CN(C)c1nc2c(cnn2C)c(=O)[nH]1,17,.,.,.,-1,1,.,-14,
CCOC(=O)CNC(=O)C(CC(C)C)NC(=O)C1CCCCC1 (stereo unspecified),-23,i,-16,-2,1,1,3,-6,
Cc1ccc(CNC(=O)Nc2ccccc2)cc1,-113,i,-9,-6,5,-2,3,-27,
Cc1ccc(CSc2nnc(SCC(=O)N/N=C/C=C/c3ccccc3[N+](=O)[O-])s2)cc1,36,i,1,-6,6,2,1,.,
Cc1ccc(-c2nnc(Nc3ccc4c(c3)OCO4)c3ccccc23)cc1S(=O)(=O)NCCO,10,i,3,-2,5,0,-4,-8,
CN(C)S(=O)(=O)n1cc(/C=C(\NC(=O)c2ccccc2)C(=O)N2CCCCC2)c2ccccc21,-33,.,.,.,-3,-7,.,-20,
O=C(c1ccccn1)N1CCN(S(=O)(=O)c2cccc(Br)c2)CC1,.,.,-5,.,-3,2,.,-13,
CCOc1ccc2c(C)c(C(=O)O)oc2c1OCC,11,i,-2,14,14,8,0,.,
COc1cc(F)ccc1CN1CCC(C(=O)Nc2ccc(Oc3ccccc3)nc2)CC1,7,i,1,-3,2,-14,-4,-15,
CCOC(=O)c1sc(NC(=O)Nc2ccc(Cl)cc2)cc1C,74*,i,70,24,-14,-34,12,-32,
COc1cccc(CN2CC(C(=O)NCCCc3ccc(C)cc3)CCC2=O)c1 (stereo unspecified),-4,i,.,11,1,0,-10,-4,
CN(CC(=O)Nc1cccc(F)c1)C(=O)Cn1cnc2c1c(=O)n(C)c(=O)n2C,-35,i,-10,.,3,-1,.,.,
NC(=O)c1cccc(Nc2nc(C(N)Cc3ccc(C(F)(F)F)cc3)cs2)n1 (stereo unspecified),38,.,.,.,-8,-1,.,-11,
CC1CC(C)CN(CCCNC(=O)CN2C(=O)CSc3ccc(S(=O)(=O)N4CCCCC4)cc32)C1 (stereo unspecified),18,i,2,.,3,3,.,10,
CC(C)(C)C(=O)Nc1ccccc1N1CCN(C(=O)c2ccc(Cl)cc2)CC1,-34,i,-6,1.9*,2,-2,86*,11,eIF4H FP inh retest=59*;PABP polyA inh retest=75*
CC(C)Nc1cc(C(F)(F)F)nc(-c2ccccn2)n1,-6,i,-13,4,5,8,4,-24,
CCOC(=O)c1cn2ccc(C)cc2n1,14,i,-17,-2,-2,2,-2,.,
C=C(C)C1CCC(C)=C1COC(=O)Nc1ccccc1 (stereo unspecified),.,i,-3,0,-7,-8,3,-1,
Cc1ccc(COC(=O)c2cc([N+](=O)[O-])ccc2N2CCOCC2)cc1,-4,i,45,-12,7,-9,-7,15,
O=C(NNC(=S)NC(=O)c1cccnc1)c1ccccc1,-97,i,6,-5,4,4,17,-22,

# Screening data as filed in PubChem BioAssay.
